KCNQ2 enhance: potentiators of rat KCNQ2 potassium channel | Potassium voltage-gated channel subfamily KQT member 2 (Rattus norvegicus), O88943 | CHO-K1 KCNQ2, FluxOR thallium flux fluorescence; hits give high values | B-score at 10 µM | 310,000 tested, 0.54% active | AID 2239, 2010;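 active = fluorescence ratio B-score at least 3 SD of library B-scores, with initial fluorescence B-score within 3 SD, cut at about 5.3 in these data; same plate scores as AID 2156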;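 also: B-score of peak minus minimum over baseline fluorescence ratio after K+ and Tl+ stimulus; positive B-score means potentiation of KCNQ2 with more thallium influx and brighter signal; only the inactives scoring about 0 or higher are listed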
Target sequence (O88943 whole entry, looked up): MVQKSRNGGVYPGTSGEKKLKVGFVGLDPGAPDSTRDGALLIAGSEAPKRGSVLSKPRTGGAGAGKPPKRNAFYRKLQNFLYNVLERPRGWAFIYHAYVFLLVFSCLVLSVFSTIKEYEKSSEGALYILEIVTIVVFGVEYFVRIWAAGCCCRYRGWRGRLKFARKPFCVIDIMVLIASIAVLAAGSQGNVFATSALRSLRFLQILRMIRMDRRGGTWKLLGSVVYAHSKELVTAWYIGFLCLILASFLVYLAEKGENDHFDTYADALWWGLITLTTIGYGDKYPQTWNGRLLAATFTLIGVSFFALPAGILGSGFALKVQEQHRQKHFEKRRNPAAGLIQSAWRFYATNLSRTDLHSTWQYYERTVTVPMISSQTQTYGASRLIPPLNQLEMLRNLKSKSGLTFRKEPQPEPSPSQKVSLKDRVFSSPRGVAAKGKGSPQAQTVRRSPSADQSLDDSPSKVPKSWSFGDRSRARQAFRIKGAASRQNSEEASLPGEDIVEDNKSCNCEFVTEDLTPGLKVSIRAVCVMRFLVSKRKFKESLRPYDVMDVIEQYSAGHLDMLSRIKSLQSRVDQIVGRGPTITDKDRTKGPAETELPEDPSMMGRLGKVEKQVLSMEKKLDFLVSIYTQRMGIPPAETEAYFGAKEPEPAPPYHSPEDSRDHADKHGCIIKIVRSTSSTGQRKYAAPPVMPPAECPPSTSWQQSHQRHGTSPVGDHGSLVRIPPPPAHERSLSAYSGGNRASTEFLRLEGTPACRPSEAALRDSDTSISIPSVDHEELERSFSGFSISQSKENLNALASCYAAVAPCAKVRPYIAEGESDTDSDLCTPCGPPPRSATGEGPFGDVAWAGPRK
KCNQ2 enhance baseline: further read-out of KCNQ2 enhance, marked with its call; B-score; compound at 10 µM; measured here: initial fluorescence intensity artifact check;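 brightness before thallium and not channel activity; 0 = typical well and far values either way flag optical interference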
* marks the source's active call; other numbers are inactive results; . = no result given.

Structure | KCNQ2 enhance baseline | KCNQ2 enhance
COc1ccc(/C=C2\Sc3ccc(C(=O)N4CCCC4)cc3N(C)C2=O)cc1OC | 0.01 | 1.96
Cc1ccc(NC(=O)CN2C(=O)N/C(=C\c3cccn3-c3cccc(C(=O)O)c3)C2=O)cc1 | -1.14 | 0.92
CC(C)CC(=O)Nc1cccc(C(C)O)c1 (stereo unspecified) | 0.75 | 0.79
CSc1ccc(C(=O)C2CCCN(C(=O)CN3CCOC3=O)C2)cc1 (stereo unspecified) | 0.53 | 1.64
Cc1cccc(NC(=O)CN2C(=S)NC(C)(C)CC2C)c1C (stereo unspecified) | -0.06 | 0.12
NC(=O)[C@@H]1CCCN1Cc1c(C(=O)N2CCN(C3CCCCC3)CC2)nc2ccccn12 | -0.72 | 0.39
CCC(c1nnnn1Cc1ccco1)N1CCC(C(N)=O)CC1 (stereo unspecified) | -0.26 | 1.21
Cc1ccc(C)c(S(=O)(=O)N2CCN(C(=O)Cc3ccccc3)CC2)c1 | 0.52 | 0.53
Nc1nc(SCn2nnc3ccccc3c2=O)n[nH]1 | 0.02 | 1.55
CCOc1cc(CNc2ccc(N3CCN(C(C)=O)CC3)cc2)cc(Br)c1OC | 0.39 | 0.31
Nn1c(SCc2ccc(C(=O)O)cc2)nnc1-c1ccc(Cl)cc1Cl | -0.04 | 0.41
C/C(O)=C(/C#N)c1nc2ccccc2[nH]1 | -1.04 | 0.07
O=C(N/N=C/c1ccncc1)c1cc([N+](=O)[O-])cc([N+](=O)[O-])c1O | 0.21 | 0.49
Cc1sc2nc(NCCO)[nH]c(=O)c2c1C | 0.6 | 0.15
CC1(NC(=O)C23CC4CC(CC(C4)C2)C3)CCS(=O)(=O)C1 (stereo unspecified) | 0.09 | 0.01
Cc1cc(NC(=O)CSc2ccc(-c3ccc(Br)cc3)nn2)no1 | -1.79 | 0.14
CC(NC(=O)c1cnccn1)c1ccc(S(N)(=O)=O)cc1 (stereo unspecified) | -2.16 | 0.44
O=c1c2ccccc2nc2n1C(CSc1ccc(Br)cc1)CN2 (stereo unspecified) | -0.41 | 0.01
N#CC(=C=[N-])c1nc2ccccc2nc1-[n+]1cccc(NC(=O)c2ccccc2)c1 | . | 1.06
C(=C\c1nnc2c3ccccc3ncn12)/c1ccccc1 | -0.09 | 0.62
CCCCc1nnc(NC(=O)Cn2cnc3ccccc3c2=O)s1 | -0.99 | 0.61
Cc1cc(Nc2ccccc2)n(C(=O)c2ccc(N)cc2)n1 | -0.97 | 1.44
Clc1ccc2[nH]c(-c3ccccc3)cc2c1 | 0.9 | 1.14
CS(=O)(=O)N(CC(=O)Nc1ccccc1Sc1ccccc1)C1CCCCC1 | -2.19 | 1.25
CCCNC(=O)Nc1nc2ccccc2s1 | -1.88 | 1.25
Cn1cnnc1SCC(=O)Nc1ccc2nc(SCc3ccccc3F)sc2c1 | -1.06 | 0.03
CC12CCC(=O)N1C(C(=O)Nc1ccc(S(=O)(=O)N3CCCCC3)cc1)CS2 (stereo unspecified) | 0.05 | 0.49
CC(C)(C)c1ccc(C(=O)N2CCCCCC2=O)cc1 | 5.81 | 1.53
CCCc1cc(=O)oc2cc(OCc3ccc(OC)cc3)c(Cl)cc12 | -0.09 | 0.22
CC(=O)CCS(=O)(=O)c1ccc(NC(C)=O)cc1 | 1.07 | 2.33
CCN(c1ccccc1)C1(O)C(=O)c2ccccc2C1=O | -0.36 | 0.29
COc1cc(OC)c(N(C)S(=O)(=O)c2cccc(C(=O)OCC(=O)c3c[nH]c4ccccc34)c2)cc1Cl | 0.53* | 6.3*
Cc1cc(C)c(S(=O)(=O)Nc2ccc(-c3cn4ccccc4n3)cc2)c(C)c1 | -0.84 | 0.5
CC(C)C(=O)N(Cc1cc2ccccc2[nH]c1=O)C(C)(C)C | -0.36 | 2.38
Cc1ccc2oc(C(F)(F)C(F)F)cc(=O)c2c1 | 0.01 | 0.58
CC1(c2ccccc2Cl)NC(=O)N(CC(=O)NCc2ccc3c(c2)OCO3)C1=O (stereo unspecified) | -3.21 | 0.43
COc1ccc(C(=O)N/N=C2/SCC(=O)N2Cc2ccc3c(c2)OCO3)cc1OC | -0.78 | 1.76
O=C(Nc1nc(-c2ccccc2)cs1)C1CCCN(S(=O)(=O)c2ccccc2)C1 (stereo unspecified) | -1.35 | 0.6
CCN(CC)C(=O)c1ccc(Nc2nnc(C)c3ccccc23)cc1 | 0.88 | 2.17
CC(=O)NC1C(OCCOc2ccc(Cl)cc2C)OC(CO)C(O)C1O (stereo unspecified) | 1.58 | 0.04
COc1cc(C(=O)Nc2c(C(=O)O)[nH]c3ccc(Br)cc23)cc(OC)c1OC | 0.26 | 1.31
O=C(CCCCCN1C(=O)CCC1=O)Nc1ccc(Cl)c(C(F)(F)F)c1 | 0.59 | 1.02
COC(=O)c1ccc2nc(-c3cccc(N)c3)cn2c1 | -0.88 | 1.26
COc1ccc(CNC(=O)CN(C(=O)CCC(=O)Nc2nccs2)c2cccc(C)c2)cc1 | -0.44 | 1.21
COc1cccc(C(=O)Nc2c(F)cccc2F)c1 | -0.56 | 0.04
COc1ccc(C(O)P(=O)(OC(C)C)OC(C)C)c(OC)c1 (stereo unspecified) | 0.2 | 0.09
COC(=O)c1c(NC(C)=O)sc2c1CCCCC2 | 3.04 | 1.16
Cc1nnc(SCC(=O)Nc2cc(C(N)=O)cc(C(N)=O)c2)n1-c1ccccc1 | 0.74 | 1.43
Cc1nn(C)c(C)c1NC(=O)CN1CCC(O)(c2ccc3c(c2)OCO3)CC1 | 0.7 | 0.35
COCC(=O)NNS(=O)(=O)c1ccccc1[N+](=O)[O-] | -2.28 | 0.04

The results go on.
Structure | KCNQ2 enhance baseline | KCNQ2 enhance
O=C(NCCCn1ccnc1)Nc1ccc(Cl)cc1 | -0.03 | 0.43
O=C(O)c1ccccc1OC(=O)C12CC3CC(CC(C3)C1)C2 | 1.67 | 0.53
CC(NC(=O)c1ccccc1C(=O)O)c1ccc(-n2ccnc2)cc1 (stereo unspecified) | 1.44 | 0.39
CCOc1ccc(C(=O)NCCCCNC(=O)c2ccc(OCC)cc2)cc1 | -1.49 | 1.86
COc1ccc(C(=O)c2ccc(CC(=O)O)s2)cc1 | 0.09 | 0.22
O=C(Cc1cccc2ccccc12)N/N=C/c1ccc(Sc2nc3ccccc3s2)o1 | -0.08 | 1.12
COCCCNC(=O)c1ccccc1-c1cc(C)no1 | 2.76 | 0.09
CCOc1ccccc1NC(=O)CCc1nnc2ccc(NCc3ccco3)nn12 | -0.21 | 1.7
CC(C(=O)O)N1c2cccc3cccc(c23)S1(=O)=O (stereo unspecified) | -2.27 | 0.98
CCSc1ccccc1C(=O)Nc1ccc2c(c1)OCO2 | -0.48 | 0.02
CCOC(=O)c1cnc2ccccc2c1Nc1cc(C(=O)O)ccc1C | -0.61 | 0.87
COc1cccc(NC(=O)CN(C)S(=O)(=O)c2ccc3c(c2)CCC(=O)N3)c1 | -0.68 | 0.01
COc1ccc2c(c1)C1CC(C)(NC(=O)C1S(=O)(=O)c1ccc(F)cc1)O2 (stereo unspecified) | -1.08 | 0.88
Cc1cc(=O)oc2cc(OCC(=O)Nc3nnc(C4CC4)s3)ccc12 | 0.12 | 0.66
Cc1cccnc1NC(=O)CCNS(=O)(=O)c1ccc2c(c1)c(=O)n(C)c(=O)n2C | -0.91 | 0.45
Cc1c(Nc2nc3ccccc3n3cnnc23)cccc1[N+](=O)[O-] | 1.12 | 0.23
COc1ccc(CCN(C(=O)c2snc(C(N)=O)c2N)C(C)C(=O)NC2CCCCC2)cc1OC (stereo unspecified) | -2.12 | 1.44
Cc1cc(C2(c3cc(C)c(NC(=O)CN4CCOCC4)c(C)c3)CCCCC2)cc(C)c1NC(=O)CN1CCOCC1 | 0 | 0.01
COc1cccc(/C=C(/C#N)c2ccc(Cl)cc2)c1OCc1cccc(C(=O)O)c1 | 0.14 | 2.14
Cc1ccc(OCC(=O)Oc2c(C)cccc2C)cc1C | 1.17 | 1.96
COc1ccc(NC(=O)COC(=O)C2CC(=O)N(c3ccc(OC(C)C)cc3)C2)cc1 (stereo unspecified) | -0.28 | 0.11
Cc1ccc(COc2ccc(Br)cc2/C=N/O)cc1 | 3.05 | 1.66
Cc1ccc(C(=O)NNC(=O)c2ccc(-n3cncn3)c([N+](=O)[O-])c2)cc1 | -0.87 | 0.68
Cc1ccc(N2CCN(CCc3nc4cc(NS(C)(=O)=O)ccc4n3C)CC2)cc1 | -0.62 | 0.37
COc1ccc(-c2cc(CNS(=O)(=O)c3ccc(F)cc3)on2)cc1 | -0.94 | 1.2

Some of the entries so far, as labelled records:
COc1ccc2c(c1)C1CC(C)(NC(=O)C1S(=O)(=O)c1ccc(F)cc1)O2 (stereo unspecified)
  KCNQ2 enhance baseline: -1.08 | KCNQ2 enhance: 0.88

Cc1cc(=O)oc2cc(OCC(=O)Nc3nnc(C4CC4)s3)ccc12
  KCNQ2 enhance baseline: 0.12 | KCNQ2 enhance: 0.66

Cc1cccnc1NC(=O)CCNS(=O)(=O)c1ccc2c(c1)c(=O)n(C)c(=O)n2C
  KCNQ2 enhance baseline: -0.91 | KCNQ2 enhance: 0.45

Cc1c(Nc2nc3ccccc3n3cnnc23)cccc1[N+](=O)[O-]
  KCNQ2 enhance baseline: 1.12 | KCNQ2 enhance: 0.23

Further results follow:
Structure | KCNQ2 enhance baseline | KCNQ2 enhance
C=CCSc1nc(=O)n2ccc(C)cc2n1 | -1.18 | 0.23
CC(C)CNC(=O)CO/N=C/c1ccccc1Cl | 0.97 | 0.45
Cc1ccc(CN(c2ccc(C(=O)NCc3cccnc3)cc2)S(C)(=O)=O)cc1 | -2.48 | 0.03
CN(C)C(CNC(=S)Nc1ccccc1)c1cccnc1 (stereo unspecified) | 0.05 | 0.97
c1ccc(CNc2c3c(nc4ncnn24)CCC3)cc1 | -1.65 | 0.85
COc1cc(C(=O)N2CCN(S(=O)(=O)c3cccc(F)c3)CC2)ccc1OCC(=O)N1CCOCC1 | 0.76 | 0.78
COc1cc(CCCN2C(=O)C(=O)NC[C@@H]2CCCCN)cc(OC)c1OC | 0.27 | 1.04
COC(=O)c1cc(NC(=O)CC2NCCNC2=O)cc(C(=O)OC)c1 (stereo unspecified) | 0.54 | 0.16
COc1cccc(NC(=O)N2CCN(c3nnnn3-c3ccccc3)CC2)c1 | -0.47 | 1.39
CCCN1CCN(C(=O)c2ccc(CS(=O)c3ccc(Cl)cc3)o2)CC1 (stereo unspecified) | 0.24 | 0.74
NC(=O)C1CCN(C(c2ccccc2Cl)c2nnnn2CC2CCCO2)CC1 (stereo unspecified) | 0.68 | 1.1
COc1ccc(CSc2nc(C)cc(=O)[nH]2)cc1Br | -0.57 | 1.16
COc1ccc(OC(C)C(=O)N2CCCc3ccccc32)cc1 (stereo unspecified) | -0.22 | 0.03
CC(OC(=O)COc1ccccc1[N+](=O)[O-])C(=O)Nc1ccc(N2CCOCC2)cc1 (stereo unspecified) | 0.49 | 0.66
COC(=O)C1=C(C)NC(=S)N(C(C)=O)C1c1ccc(OC)c(OC)c1 (stereo unspecified) | -0.05 | 0.12
COc1ccc2oc(C)c(C(=O)NN)c2c1 | 0.67 | 0.88
Cc1ccc(-c2nc(S(=O)(=O)c3ccc(C)cc3)c(N(C)C)o2)cc1 | 1.32 | 0.37
CC(C)N1CCc2c(sc(NC(=O)Cc3ccccc3)c2C(N)=O)C1 | -2.83 | 0.16
CSc1nnc(C(C)(C)C)c(=O)n1/N=C/c1ccccc1 | -1.05 | 0.32
O=c1oc2ccccc2c(Nc2ccccc2)c1CN1CCCCC1 | 0.31 | 0.13
CC(C)CN(C(=O)COC(=O)c1cc2c(s1)CCC2)C1CCS(=O)(=O)C1 (stereo unspecified) | 2 | 0.36
O=C(Cc1ccc(-n2c(=S)[nH]c3ccccc3c2=O)cc1)N1CCC(N2CCCCC2)CC1 | -1.63 | 0.51
CCCn1nnnc1NCc1c(Cl)cccc1Cl | -0.06 | 0.71
C/C(=N\NC(=S)NC1CCCCC1)c1ccc(O)cc1 | 0.21 | 0.18
CCOc1ccc(N2C(=O)CC(N(CCc3ccc(OC)cc3)C(=O)/C=C/C(=O)O)C2=O)cc1 (stereo unspecified) | 1.5 | 0.05
NC(=O)c1ccsc1NC(=O)COC(=O)Cc1ccsc1 | -1.33 | 4.43
Cn1c(=S)[nH]c2sc3c(c2c1=O)CCC(C(C)(C)C)C3 (stereo unspecified) | 0.6* | 18.5*
CCOc1ccc(OCCn2c(=S)[nH]c3ccccc32)cc1 | 1.07 | 0.12
O=C(N/N=C/c1cccnc1)c1ccc2ccccc2c1O | -1.6 | 0.24
CCOC(=O)C1(CCOc2ccccc2)CCN(Cc2ccc(O)cc2)CC1 | 1.09 | 1.58
COc1ccc(OCC(O)CN2CCNCC2)cc1 (stereo unspecified) | 0.38 | 0.68
CCOc1ccc(C2C=C(c3ccc(C)cc3)Nc3nnnn32)cc1 (stereo unspecified) | -0.54 | 0.66
COc1ccc(OCC(O)CNS(=O)(=O)c2cccs2)cc1 (stereo unspecified) | 1.28 | 0.05
CCOC(=O)N1CCN(c2ncnc3c2oc2nc(C(C)C)c4c(c23)CCC4)CC1 | -0.26 | 0.12
Cc1ccc(NC(=O)CSCC(=O)Nc2ncc3c(n2)CC(c2ccco2)CC3=O)cc1 (stereo unspecified) | 0.13 | 0.69
CN(NC(=O)C1CC(=O)N(c2ccccc2)C1)C1=NS(=O)(=O)c2ccccc21 (stereo unspecified) | 0.33 | 1.25
O=C(CCNC(=O)C1CCN(S(=O)(=O)c2ccccc2)CC1)NCc1ccncc1 | 0.71 | 0.89
CC(=O)n1c2ccccc2c2ccccc21 | -0.42 | 1.18

Whole records as entered above.
Record of `CCOC(=O)N1CCN(c2ncnc3c2oc2nc(C(C)C)c4c(c23)CCC4)CC1` → KCNQ2 enhance baseline: -0.26; KCNQ2 enhance: 0.12
Record of `COc1ccc(OCC(O)CNS(=O)(=O)c2cccs2)cc1` (stereo unspecified) → KCNQ2 enhance baseline: 1.28; KCNQ2 enhance: 0.05

The list is partial. The share of hits here may be higher or lower than overall.
